LASV entry inh: Lassa virus entry inhibition. 300,000 tested, 1.2% active. Potency, µM (titrated, usually from 37.9 µM), for the others: at the highest dose activity change, negative = inhibition, actives largely listed as inhibitors. AID 540256. Lassa virus pseudotype entry inhibition, cell reporter; control for the full effect not named in the record; active means well fitted inhibition curve with a large enough effect; inconclusive means small, poorly fitted or top-dose-only effect, or effect the other way; inactive means flat fitted curve, though single readings scatter; tested in HEK293 cells; further: on the % scale 0 is the no-effect control and ±100 the full control effect; nearly all actives have a fitted effect of over 50% in size; luciferase read-out
SARS PLpro yeast: SARS-CoV PLP inhibition in yeast; S. cerevisiae expressing SARS-CoV PLpro, growth rescue; control for the full effect not named in the record; Potency, µM (top dose mostly 32.9 µM), for inactives: top-dose activity, positive = growth rescue; 330,000 tested, 0.19% active; AID 485353; further: 0% is about no effect; nearly all actives have a fitted effect of over 55% in size; growth read by luminescence after 48 h
MARV entry inh: Marburg virus entry inhibition. Marburg virus pseudotyped entry inhibition, cell reporter; control for the full effect not named in the record; about a third of the inactives were read at about 46 µM. Potency, µM (top dose mostly 37.8 µM), for inactives: at the highest dose activity change, negative = inhibition, usual class: inhibitors. 300,000 tested, 1.8% active. AID 540276; active = well fitted inhibition curve with a large enough effect; inconclusive = small, poorly fitted or top-dose-only effect, or effect the other way; inactive = flat fitted curve, though single readings scatter; tested in HEK293 cells; about a fifth of its hits are not listed in these tables; further: on the % scale 0 is the no-effect control and ±100 the full control effect; luciferase read-out
Cruzain inh noDet: blocks cruzain activity in detergent-free assay; AID 1476; Potency, µM, without a hit: max response, negative = inhibition, actives largely listed as inhibitors; purified cruzain, Z-FR-AMC fluorescence, no detergent; P25779; 200,000 tested, 2.3% active; active means well fitted curve in the direction sought with a large enough effect; inconclusive means small, poorly fitted or top-dose-only effect, or another doubt; inactive means no such curve, though single readings can be large; an effect the other way counts as inactive or inconclusive;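 further: plate controls were enzyme without inhibitor for no effect and buffer without enzyme for full effect; nearly all actives have a fitted effect of over 40% in size; top concentration of the series not given in the record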
Target sequence (P25779 123-467 limits assumed): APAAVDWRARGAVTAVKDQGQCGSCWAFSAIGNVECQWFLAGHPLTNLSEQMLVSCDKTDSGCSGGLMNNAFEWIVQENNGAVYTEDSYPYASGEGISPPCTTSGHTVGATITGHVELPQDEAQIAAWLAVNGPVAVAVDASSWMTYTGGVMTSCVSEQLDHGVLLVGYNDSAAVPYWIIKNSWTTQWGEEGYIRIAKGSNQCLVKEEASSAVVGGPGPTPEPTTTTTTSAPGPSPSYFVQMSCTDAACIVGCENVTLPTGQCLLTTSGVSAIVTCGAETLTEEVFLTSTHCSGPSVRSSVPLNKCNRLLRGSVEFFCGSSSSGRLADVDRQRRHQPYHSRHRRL
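Purified cruzain at 1.5 nM, pre-incubated 15 min with compound at room temperature in 100 mM sodium acetate pH 5.5, 5 mM DTT, 0.00005% Triton X-100. Reaction started with 2 uM Z-FR-AMC; AMC fluorescence increase over 60 s gives rate.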
RE007 growth inh: less growth of the S. pombe RE007 Vpr strain; S. pombe RE007 Vpr strain, BacTiter-Glo ATP luminescence, 24 h; control for the full effect not named in the record; Potency, µM (doses to about 92.2 µM), for inactives: at the highest dose activity change, negative = less growth; 360,000 tested, 0.21% active; active = well fitted falling curve with a large enough effect; inconclusive = small, poorly fitted or top-dose-only effect; inactive = no such curve, though single readings can be large or run the other way;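 further: on the % scale 0 is the no-effect control and ±100 the full control effect; nearly all actives have a fitted effect of over 50% in size; the assay follows cell death caused by Vpr and the record does not say whether a fall means rescue or toxicity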
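Fission yeast RE007 carrying one integrated HIV-1 vpr copy, seeded at OD 0.01 in PMG+AL medium with 23 nL pinned compound. Grown 24 h at 30 degrees; viability read by BacTiter-Glo luminescence after 5 min.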
NS1 inh: influenza NS1 inhibition | S. cerevisiae slowed by influenza A NS1, growth recovery by OD600 | Potency, µM (highest dose often 46.1 µM), for inactives: at the highest dose activity, positive = more growth | 270,000 tested, 0.4% active; further: actives are rising curves; nearly all actives have a fitted effect of over 50% in size
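Compounds were scored for reversing the slow growth caused by influenza A NS1 in S. cerevisiae, measured by optical density at 600 nm. Assay medium contained 2% galactose at pH 6.0; NS1-free yeast of the same strain were the positive control.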
2A StopGo: lowers the luciferase signal of an FMDV 2A StopGo reporter. human cells with a luciferase reporter of 2A StopGo recoding; control for the full effect not named in the record. 410,000 tested, 1.2% active. Potency, µM (top dose mostly 57.9 µM), for the others: top-dose signal change, negative = less light; active = well fitted falling curve with a large enough effect; inconclusive = small, poorly fitted or top-dose-only effect; inactive = no such curve, though single readings can be large or run the other way; tested in HEK293T cells; further: on the % scale 0 is the no-effect control and ±100 the full control effect; nearly all actives have a fitted effect of over 45% in size; luciferase light after 4 h
Cruzain Triton: blocks cruzain activity in presence of Triton detergent; purified cruzain, Z-FR-AMC fluorescence, 0.01% Triton; Potency, µM, for inactives: max response, negative = inhibition, hits mostly inhibitors; 200,000 tested, 0.43% active; P25779; AID 1478; active means well fitted curve in the direction sought with a large enough effect; inconclusive means small, poorly fitted or top-dose-only effect, or another doubt; inactive means no such curve, though single readings can be large; an effect the other way counts as inactive or inconclusive;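 further: plate controls were neutral wells for no effect and buffer without enzyme for full effect; nearly all actives have a fitted effect of over 40% in size; top concentration of the series not given in the record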
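Cruzain (1.5 nM) preincubated 15 min at RT with compound in 100 mM sodium acetate pH 5.5, 5 mM DTT, 0.01% Triton X-100. Reaction started with 2 uM Z-FR-AMC; AMC fluorescence (ex 360/em 450 nm) change over 60 s gave rate.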
* marks the source's active call; other numbers are inactive results; ? = inconclusive; · = no result given; & = joins results of further samples; [ ] = remark or other dose. Unless noted, the call rests on the fitted dose curve; in most records, active means well fitted rising curve with a large enough effect; inconclusive means small, poorly fitted or top-dose-only effect; inactive means no such curve, though single readings can be large or run the other way. Potency means the concentration at half of the fitted maximal effect.

SMILES	LASV entry inh	SARS PLpro yeast	MARV entry inh	Cruzain inh noDet	RE007 growth inh	NS1 inh	2A StopGo	Cruzain Triton
CC1CC(C)(C)NC(=S)N1CCCC(=O)Nc1ccccc1F (stereo not given)	17%	0%	4%	·	11%	·	-1%	·
C#Cc1ccc([C@@H]2C=C(C(=O)OCC=C)O[C@H](OCc3ccc(CO)cc3)C2)cc1	·	-2%	·	·	5%	4%	-13%	·
Cc1cccc(-n2c(SCC(=O)Nc3ccccc3C)nc3c(oc4ccccc43)c2=O)c1	·	·	-28%[46.1 µM]	-8%	·	·	-7%	-1.5%
COc1cccc(NC(=O)Cn2c(=O)n(CCC(=O)NC3CCN(Cc4ccccc4)CC3)c(=O)c3ccccc32)c1	·	0%	·	·	-6%	11%	-19%	·
CCC(=O)N1CCCN(S(=O)(=O)c2ccc(C)cc2)C1c1ccc(OC)cc1 (stereo not given)	12%[46.1 µM]	-1%	-23%[46.1 µM]	·	1%	-8%	17%	·
CCOC(=O)C1CCN(c2c(C(=O)c3ccc(OCC)cc3)cnc3ccc(OC)cc23)CC1	·	·	?	-3%	·	·	?	-5.4%
CCOC(=O)C1CCN(c2ncnc3c2cnn3-c2ccc(Cl)cc2)CC1	?	10%	-46%&-17%&-17%	25%	-8%	-6%	0%	-5.9%
CCn1ncc(Br)c1C(=O)Nc1c(C)nn(Cc2c(F)c(F)c(F)c(F)c2F)c1C	6%	?	6%	·	39%	3%	-22%	·
COc1cc(OC)cc(-c2nnc(SCC(=O)N3CCCCC3)o2)c1	·	-3%	·	5%	10%	-2%	18%	-3.7%
N#Cc1c(C(F)(F)F)cc(-c2cccs2)nc1SCc1ccc(Cl)nc1	-25%	11%	?	?	2%	-6%	-15%	-5.3%
O=C(Nc1cccc(O)c1)c1ccc(Br)cc1	0%	-2%	-25%	6%	-20%	-76%	26%	0.5%
Cc1ccc(NC(=O)CSc2nnc(N)s2)cc1S(=O)(=O)N1CCCCC1	18%	-5%	-2%	·	9%	9%	0%	·
CC(C)CC(O)C1CCN(C(=O)CCc2nnc(-c3ccc4c(c3)OCO4)o2)CC1 (stereo not given)	1%	-8%	-2%	·	4%	2%	3%	·
CC1Cc2ccccc2N1c1ncnc2nc[nH]c12 (stereo not given)	?	-42%	-3%	-3%	-5%	?	36%[activator]	-4.8%
CCCC12CN3CC(C)(CN(C1)C3c1ccccn1)C2=O (stereo not given)	20%[46.1 µM]	·	2%[46.1 µM]	-3%	·	·	-19%	4.6%
COc1nc(C)ccc1-c1noc(-c2ccccn2)n1	8.2µM*	4%	?	5%	1%	-6%	-40%	1.1%
CCCNC(=O)c1nc(C)c(C)nc1C(=O)Nc1cccc(Cl)c1	14%	22%	-5%	-11%	15%	1%	0%	-0.7%
O=C(CCCCCn1c(=O)[nH]c2ccsc2c1=O)NCc1ccc(F)cc1	-25%	-4%	?	3%	-1%	0%	26%	1.4%
O=C(CN1CCN(Cc2ccccc2Cl)C1=O)NCc1cccnc1	·	-4%	·	·	-12%	2%	-24%	·
Cc1ccc(-n2c(=O)c3cccnc3n2CC(=O)NCc2ccc(F)cc2)cc1C	-28%[46.1 µM]	·	3%[46.1 µM]	-4%	·	·	3%	-15%
Nc1cc(S(=O)(=O)Nc2cc(Cl)ccc2Cl)ccc1N1CCOCC1	?	1%	?	·	7%	8%	-8%	·
O=C(c1[nH]ncc1[N+](=O)[O-])N1CCOCC1	25%[46.1 µM]	1%	-5%[46.1 µM]	·	11%	1%	0%	·
COc1cccc(/C=N/Nc2cc(C)nc(-c3ccccc3O)n2)c1O	?	-4%	5.6µM*	·	17%	5%	?	·
CCNC(=O)c1ccccc1SCC(=O)Nc1ccc(F)cc1	15%	-4%	?	·	24%	·	22%	·
OCC1(Cc2ccc(F)cc2)CCCN(CCc2ccccc2)C1 (stereo not given)	-24%[46.1 µM]	18%	?	·	-27%	5%	-4%	·
COc1ccc(C(=O)/C=C(\C)NCc2ccc3c(c2)OCO3)cc1	-16%	3%	-1%	-12%	-7%	3%	-8%	-7.0%
COc1ccccc1N1CCN(C(=O)CCCCn2c(=O)[nH]c3ccsc3c2=O)CC1	·	0%	·	-4%	2%	-4%	-20%	-2.9%
COc1ccc(C)cc1S(=O)(=O)N1CCN(C)CC1c1ccccc1 (stereo not given)	?	0%	10%	·	1%	·	13%	·
CCc1cccc(NS(=O)(=O)c2csc(C(N)=O)c2)c1	-3%	3%	?	·	3%	0%	59%[activator]	·
O=C(/C=C/c1ccccc1)NC(=S)N1C[C@H]2C[C@H](C1)c1cccc(=O)n1C2	·	-3%	·	·	-3%	10%	14%	·
C=CCn1c(Sc2nc(C)cs2)nc2c1c(=O)[nH]c(=O)n2C	5%	-3%	14%	-7%	-5%	2%	-10%	4.1%
COc1ccc(N(CC(=O)Nc2ccc(C)cn2)S(=O)(=O)c2c(C)nn(C)c2C)cc1	·	-8%	-2%	4%	-8%	-9%	-14%	-0.4%
C=CCn1c(=N)n(CC(=O)c2ccc(Br)cc2)c2ccccc21	-28%	?	?	·	0%	20%	?	·
CCC(=O)Nc1ccccc1C(=O)OCC(=O)c1cccc2ccccc12	18%	-9%	3%	-5%	4%	7%	-22%	-3.3%
COc1ccc(NS(=O)(=O)c2ccc(C)cc2)c([N+](=O)[O-])c1	·	-2%	·	·	-7%	-1%	-4%	·
Cc1ccsc1/C=C/C(=O)O	0%	3%	?	·	-6%	·	-15%	·
CC1(C)C2CCC1(CS(=O)(=O)N1CCCC1C(=O)O)C(=O)C2 (stereo not given)	14%	-12%	?	·	13%	·	-17%	·
COc1ccccc1N=c1sc2ccccc2n1C	-2%	-24%	-17%	-12%	0%	9%	·	-2.0%
CCCC(=O)Nc1c(-c2cccc(C)c2)c(=O)c2ccccc2n1C	25%[46.1 µM]	2%	30%[46.1 µM]	·	5%	3%	-11%	·
Cc1onc(-c2ccccc2)c1C(=O)NNC(=S)NC(=O)c1ccc(Br)cc1	-3%	12%	-21%	-5%	2%	-12%	-25%	7.9%
N#Cc1ccc(-c2cn3c(n2)SCC3)cc1	·	3%	·	·	6%	0%	48%[activator]	·
CCOC(=O)c1[nH]c(C)c(C(=O)Nc2ccc(F)cc2)c1C	·	-3%	·	-24%	0%	4%	7%	-0.1%
COc1ccc(CC(=O)Nc2nc3ccccc3s2)cc1S(=O)(=O)N1CCOCC1	?	?	?	-4%	6%	-1%	?	-11%
CCCc1cc(=O)n2[nH]c(-c3ccc(C)cc3)nc2n1	7%[46.1 µM]	·	?	7%	·	·	47%[activator]	-2.8%
CCc1ccc(C(=O)c2cn(CC(=O)Nc3ccc(F)cc3)c3cc4c(cc3c2=O)OCO4)cc1	?	·	?	-14%	·	·	-21%	-7.4%
COc1cccc(NC(=O)NC2CCN(Cc3nnnn3Cc3ccc4c(c3)OCO4)CC2)c1	·	0%	·	·	0%	-42%	-20%	·
Cc1ccc(-c2nc(CS(=O)(=O)CC(=O)Nc3cc(F)ccc3F)c(C)o2)cc1	·	5%	·	·	-1%	3%	0%	·
CCOC(=O)/C(=C/C1=CC(=C/N(C)C)/C(=O)O1)C(C)=O	7%	1%	-2%[46.1 µM]	·	4%	-3%	-3%	·
CCCCCOc1ccc(C(=O)CCC(=O)N2CCCC2)cc1	?	-22%	-17%[46.1 µM]	·	12%	-11%	-16%	·
CCn1c(NC(=O)/C=C/c2ccc(F)cc2)nc2ccccc21	?	-10%	?	·	?	-82%	20%	·
CCCCNC(=O)Cc1coc2ccc3ccccc3c12	6%	-6%	?	-21%	-1%	-11%	12%	-1.4%
COc1ccc(C(CNC(=O)c2cc(=O)[nH]c3ccccc23)N2CCCC2)cc1 (stereo not given)	2%	-8%	4%	0%	-3%	-2%	11%	-5.5%
O=C(N/N=C/c1ccccc1[N+](=O)[O-])c1cccs1	-14%[46.1 µM]	-1%	?	·	61%	-7%	27%	·
CCOC(=O)C1=C(C)N(CCO)C(=O)NC1c1cccc(O)c1 (stereo not given)	1%	-7%	8%	-1%	4%	-7%	4%	0.9%
Cc1cc(N2CCN(c3ccccc3)CC2)n2ncnc2n1	-5%	0%	?	·	19%	-1%	?	·
O=C(c1cc2cc(Br)cc(Br)c2oc1=O)N1CCCc2ccccc21	·	4%	6%	-3%	·	-16%	·	7.9%
C=CCN1c2ccccc2[C@]23C[C@@H](C(=O)OC)N(C(=O)c4ccco4)C2=NC(C(=O)OC)=C(C(=O)OC)[C@H]13	·	-1%	·	·	2%	-8%	0%	·
COc1ccc(NC(=O)CSC2=Nc3ccccc3C3=NC(CCC(=O)NCc4cccs4)C(=O)N23)cc1 (stereo not given)	5%[46.1 µM]	·	·	-11%	·	·	-27%	-3.8%
CCOC(=O)N1CCN(C(=O)C(CC)c2ccccc2)CC1 (stereo not given)	-1%	12%	-2%	0%	4%	-3%	-7%	-2.5%
COc1ccc(OC)c(NC(=O)CN2CCc3ccccc3C2)c1	?	-8%	?	·	-5%	-16%	-1%	·

New compounds follow.
SMILES	LASV entry inh	SARS PLpro yeast	MARV entry inh	Cruzain inh noDet	RE007 growth inh	NS1 inh	2A StopGo	Cruzain Triton
Brc1ccc(OCc2nnnn2-c2ccccc2)cc1	·	-4%	3%[46.1 µM]	·	-2%	·	-30%	·
O=C1NC(=O)/C(=C\c2ccc(Oc3cnccn3)cc2)S1	?	-1%	4%[46.1 µM]	·	5%	·	35%[activator]	·
O=C(Cn1nc2sc3ccccc3n2c(=O)c1=O)c1cccs1	·	1%	·	·	-25%	1%	-6%	·
CCCN1C(=O)CC(c2ccco2)Sc2ccccc21 (stereo not given)	16%	-4%	-23%	-5%	-15%	11%	3%	-0.7%
COc1ccc2c(c1)c(CC(=O)OC(C)C(=O)N(C)C)c(C)n2C(=O)c1ccc(Cl)cc1 (stereo not given)	?	-3%	?	·	0%	-24%	?	·
O=C(Nc1ncc(Cl)cn1)c1cccs1	8%	2%	20%	-1%	2%	-14%	12%	0.9%
COc1cc(OC)c2c(OC)cccc2n1	-12%	-2%	-7%	8%	3%	6%	-15%	-3.8%
COC(=O)C1=CN(Cc2ccc(OC)c(OC)c2)C=C(C(=O)OC)C1c1cccc(O)c1	·	1%	·	·	6%	-2%	-6%	·

Source: PubChem BioAssay
